Polio RdRp inh: poliovirus RNA polymerase inhibition; % elongation, % (compound at 16.7 µg/mL); poliovirus polymerase elongation, fluorescence polarization; stronger effect = lower value; AID 588519; P03300; hit rate 0.66% among 150,000; in the data active means % elongation below about 90%; further: some results filed as inactive read as strong as hits
Target sequence (P03300 1749-2209 limits assumed): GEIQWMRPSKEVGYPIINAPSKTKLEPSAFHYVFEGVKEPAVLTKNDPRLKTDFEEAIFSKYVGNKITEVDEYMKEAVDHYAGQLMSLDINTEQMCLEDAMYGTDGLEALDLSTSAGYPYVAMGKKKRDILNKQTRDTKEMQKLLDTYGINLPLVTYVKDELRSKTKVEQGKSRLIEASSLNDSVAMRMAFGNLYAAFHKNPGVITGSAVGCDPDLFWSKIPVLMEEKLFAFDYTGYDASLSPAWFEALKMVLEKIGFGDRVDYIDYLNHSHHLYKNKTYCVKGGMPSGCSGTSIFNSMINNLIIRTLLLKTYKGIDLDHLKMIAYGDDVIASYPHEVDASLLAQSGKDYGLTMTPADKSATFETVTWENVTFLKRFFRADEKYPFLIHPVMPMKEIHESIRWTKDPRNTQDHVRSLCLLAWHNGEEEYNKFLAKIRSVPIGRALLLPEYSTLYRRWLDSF
MenB inh: inhibitors of Mycobacterium tuberculosis MenB enzyme. MenB enzyme assay, absorbance read-out; some hits fall short of the stated cut. P9WNP5. inhibition, %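 (about 12 µg/mL by stock and volumes)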. hit rate 0.43% among 100,000;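 active means mean of two replicates above 30%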;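 further: 0% = no compound and 100% = wells with inactive enzyme; the first replicate is given; strong numbers were not always called active; inactives centre near -10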
Target sequence (P9WNP5 whole entry, looked up): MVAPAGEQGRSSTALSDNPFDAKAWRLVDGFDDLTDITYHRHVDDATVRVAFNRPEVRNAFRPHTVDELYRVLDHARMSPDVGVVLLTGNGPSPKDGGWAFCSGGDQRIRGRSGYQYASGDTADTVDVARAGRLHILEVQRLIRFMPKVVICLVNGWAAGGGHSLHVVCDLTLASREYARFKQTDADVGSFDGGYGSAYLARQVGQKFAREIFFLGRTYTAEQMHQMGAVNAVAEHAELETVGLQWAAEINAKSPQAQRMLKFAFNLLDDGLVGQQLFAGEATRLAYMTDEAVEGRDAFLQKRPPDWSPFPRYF
Mtb MbtI inh: blocks the Mycobacterium tuberculosis siderophore enzyme MbtI; P9WFX0; purified MbtI enzyme, fluorescence intensity read-out; inhibition, %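 (about 17 µg/mL by stock and volumes)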; hit rate 0.89% among 100,000; AID 493033;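 active means above 50% in both replicates, above 80% if mildly self-fluorescent; inactive means the rest, strongly fluorescent compounds included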;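 further: 0% = mean of negative and 100% = mean of positive controls; one replicate is shown; some compounds called inactive have numbers as strong as hits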
Polio RdRp inh intensity: also measured in Polio RdRp inh; calls as there; % elongation; measured here: total intensity read-out; formula for this scale not given here;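 total fluorescence in place of polarization; lower means less elongation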
* = called active by the depositor; . = no result given; & = joins results of further samples. No enrichment for hits; overall some 1.8% were active at least once.

Start of the data: the first 7 entries as a preview:
SMILES	Polio RdRp inh	Polio RdRp inh intensity	MenB inh	Mtb MbtI inh
CC(Sc1nnc(COc2ccc(Cl)cc2)n1C)C(N)=O (configuration not stated)	104	111	-9	-13
O=C(O)CCSc1nccn1Cc1ccccc1	101	97	-94	-7
COC(=O)c1c(C)c(C)c(C(=O)OC)c(C)c1C	101	104	-15	-10
CN(C(Cc1ccc(OS(=O)(=O)c2cccc3cnccc23)cc1)C(=O)N1CCN(c2ccccc2)CC1)S(=O)(=O)c1cccc2cnccc12 (configuration not stated)	98&98	100&99	-9	1
O=C(COc1ccccc1)NCC(=O)Nc1nc(CC23CC4CC(CC(C4)C2)C3)cs1	101	102	-26	-1
Cc1ccc(C(=O)Nc2nccs2)c(C)c1	100	98	-11	-4
Cc1cc(C)nc(SCC(=O)c2ccccc2)n1	103	98	10	6

The list itself, from the start:
SMILES	Polio RdRp inh	Polio RdRp inh intensity	MenB inh	Mtb MbtI inh
CC(Sc1nnc(COc2ccc(Cl)cc2)n1C)C(N)=O (configuration not stated)	104	111	-9	-13
O=C(O)CCSc1nccn1Cc1ccccc1	101	97	-94	-7
COC(=O)c1c(C)c(C)c(C(=O)OC)c(C)c1C	101	104	-15	-10
CN(C(Cc1ccc(OS(=O)(=O)c2cccc3cnccc23)cc1)C(=O)N1CCN(c2ccccc2)CC1)S(=O)(=O)c1cccc2cnccc12 (configuration not stated)	98&98	100&99	-9	1
O=C(COc1ccccc1)NCC(=O)Nc1nc(CC23CC4CC(CC(C4)C2)C3)cs1	101	102	-26	-1
Cc1ccc(C(=O)Nc2nccs2)c(C)c1	100	98	-11	-4
Cc1cc(C)nc(SCC(=O)c2ccccc2)n1	103	98	10	6
Cc1cc(NC(=S)NC(C)(C)C)ccc1Br	108	110	7	3
CC1(C)CN=C(NCc2ccccc2Cl)S1	100	103	-17	-3
Oc1ccccc1N1CCN(c2nc(-c3cccs3)nc3ccccc23)CC1	104	110	-16	5
CCOC(=O)c1c(NC(=O)COC(=O)Cn2cnc3ccccc32)sc(C)c1C	95	97	-17	-25
COC(=O)c1ccc2c(c1)CN(c1ccc(Br)cc1)C2	107	111	-11	.
S=C(NCC1CCCO1)N1CCN(Cc2ccccc2Cl)CC1 (configuration not stated)	101	104	-9	-2
COc1ccc(C(=O)Nc2ccc(N3CCN(c4ncccc4C(F)(F)F)CC3)nc2)cc1	102	106	12	-3
Cc1noc2ncnc(N3CCC(C(=O)N4CCc5ccccc54)CC3)c12	100	103	14	-10
O=C(c1c(Cl)nc2sccn12)N1CCOCC1	106	108	.	-6
CCN(C(C)=O)c1nc2c3ccccc3n(C(C)=O)c2s1	102	100	-6	-16
O=C(Nc1ccc(Oc2ccccc2)cc1)C1c2ccccc2Oc2ccccc21	99	90	-24	3
N/C(=N\OC(=O)C1CCCS1)c1ccc(C(F)(F)F)cc1 (configuration not stated)	101	102	-10	10
CC(=O)Nc1nc(C(=O)O)cs1	102	104	13	-11
O=C(O)C1CCCN1S(=O)(=O)c1ccc(Cl)cc1 (configuration not stated)	100	103	5	-3
COc1cc(CCC(=O)NCc2ccccc2)cc(OC)c1OC	102	104	-8	-9
CCCc1cc(=O)n2[nH]c(C(=O)N3CCC(C)CC3)nc2n1	103	102	-24	4
CCOC(=O)c1c(C)nc2ccccc2c1C(=O)O	111	112	1	.
C/C(CC12CC3CC(CC(C3)C1)C2)=N/O	101	96	.	-1
CCc1cccc2c(=O)c(C(=O)N3CCCCC3)c[nH]c12	100	101	5	-3
CCc1c(C)nc2cc(-c3ccccc3)[nH]n2c1=O	100	101	-5	134
O=C(Cn1ncc2c3ccccc3n(Cc3ccccc3F)c2c1=O)N1CCC2(CC1)OCCO2	106	99	-39	-2
CC1=C(C(=O)N(CC(=O)NCc2ccco2)c2ccc(Cl)cc2)SCCO1	103	101	-7	-3
Clc1ccc(Cl)c(Nc2nc3cc(Cl)ccc3o2)c1	107	104	-42	-4
C[C@H]1O[C@@H](OC2CC[C@]3(C=O)[C@H]4CC[C@]5(C)[C@@H](C6=CC(=O)OC6)CC[C@@]5(O)[C@@H]4CC[C@]3(O)C2)C[C@H](O)[C@@H]1O (some centres not stated)	102	102	3	-6
O=C1CCCc2cc(S(=O)(=O)Nc3ccccc3)ccc2N1	100	103	3	5
CNc1[nH]c(=S)nc2sc3c(c12)CCCC3	100	96	13	-5
CCCn1ccc2c(OCc3ccccn3)cccc2c1=O	102	104	-5	-47
CCN(CC)C(=O)c1nn(C)c2c1CSc1ccccc1-2	101	102	7	10
Cn1cccc1/C=C/C(=O)OCc1ccccc1C#N	99	108	-4	4
CCOC(=O)C1CCN(c2ncnc3cc(OC)c(OC)cc23)CC1	99	97	2	0
c1ccc2c(c1)COC(CCN1CCN(CCC3OCc4ccccc4CO3)CC1)OC2	103	102	-18	-4
COc1cc2c(cc1OC)CN(C1CC(=O)N(CCc3ccccc3)C1=O)CC2 (configuration not stated)	106	100	4	17
COc1ccc(CNC(=O)c2cccnc2SC)cc1OC	104	104	5	-1
CCCCN(CC)C(=O)c1ccccc1Oc1ccccc1	101	102	-26	-3
Cn1c(NC(=O)/C=C/c2ccccc2)cc(=O)n(C)c1=O	99	103	-13	-1
Cc1nc2ccc(NC(=O)/C=C/C(=O)O)cc2s1	104	105	2	2
CC(=O)Nc1c2c(nn1-c1ccccc1)CS(=O)(=O)C2	100	101	-13	6
O=C(NC1=NCCS1)c1sc2cc(F)ccc2c1Cl	102	99	.	-1
O=C(NCCN1CCOCC1)c1cccc2ccccc12	103	103	-14	.
O=C(NCCCN1CCCC1)C(Cc1ccccc1)N1Cc2ccccc2C1=O (configuration not stated)	103	102	-4	-4
CC(C)Oc1cccc(OCCn2cnc3ccccc32)c1	102	101	-6	0
CS(=O)(=O)c1nc2ccccc2n1Cc1cccc2ccccc12	103	106	-39	17
CCCCN(C(=O)c1nn(C)c2c1CSc1ccccc1-2)C1CCN(C(C)=O)CC1	100	100	3	40
COc1ccc2[nH]c3c(=O)n(/N=C/c4ccccc4)cnc3c2c1	102	102	-27	-38
CCCC(c1nnnn1C(C)(C)C)N(Cc1ccco1)Cc1cc2ccc(C)cc2[nH]c1=O (configuration not stated)	102	101	23	0
Oc1c(C=NCc2ccccc2)[nH]c2ccccc12	89	155	-135	27
CCOc1ccc(NS(=O)(=O)c2ccc3c(c2)N(C(C)=O)CCO3)cc1	104	101	-7	-20
Cc1c(Sc2ccc(Cl)cc2)cnn1C(=O)Nc1cccc(C(F)(F)F)c1	101	108	-6	-8
Cc1[nH]c2ccc(Cl)cc2c(=O)c1CN1CCCC(C)C1 (configuration not stated)	104	104	-7	-2
COc1ccc(C2C(C(=O)O)=C(C)OC2c2ccccc2)cc1 (configuration not stated)	102	98	-35	-4
Cn1nc(C(=O)N2CCCCCC2)c2ccccc2c1=O	102	96	-17	-3
O=c1nc(SCc2ccccc2)c2c(n1Cc1cccnc1)CCC2	95	132	-20	3
Cc1nc2ccccc2c(C)c1CC(=O)N1CCN(CCOc2ccccc2)CC1	94	105	2	16

(listing goes on)
SMILES	Polio RdRp inh	Polio RdRp inh intensity	MenB inh	Mtb MbtI inh
CCc1ccccc1Nc1nc(N)nc(CSc2ccc(F)cc2)n1	106	106	-33	3
CC(C)(C)C(C)(C)O	102	107	-12	3
C=CCn1c(SCC(=O)c2ccccc2)nc2ccccc21	107	109	-20	-7
Cc1oc2c(c1C(=O)Nc1ccc(I)cc1)CCCC2	103	104	-25	-14
O=C1N=c2ccccc2=C/C1=C/c1sc(=S)n(Cc2ccccc2)c1O	101	98	.	-8
Cc1cc(Nc2ccccc2O)c2ccccc2n1	100	101	2	2
CCC1(C)Cc2ccccc2-c2c1c(=O)n(Cc1ccccc1)c1nnnn21 (configuration not stated)	99	102	-27	-4
COc1ccc(CNC(=O)c2c(C)oc3c2cc(OC(C)=O)c2ccccc23)cc1	103	105	-39	17
Cc1ccccc1NC(=O)Cn1c(NCC(C)O)nc2ccccc21 (configuration not stated)	103	106	.	-6
COc1ccc(C2=NNC(=O)CC2)cc1	100	101	-17	33
Cc1cc(N2CCCC(O)C2)nc(C)n1 (configuration not stated)	103	102	-14	-2
O=C(OCCSc1cnc2ccccc2n1)c1cc(Cl)cc(Cl)c1	97	103	7	-11
O=C1OC(/C=C/c2ccc(Cl)cc2)=NC/1=C/c1ccco1	104	104	-20	-14
CC(C)(C)c1ccc(N=Cc2ccccn2)cc1	102	107	.	-5
O=C(O)CC(C(=O)O)N1C(=O)/C(=C\c2ccco2)SC1=S (configuration not stated)	99	105	-473	16
c1ccc(-c2nc(-c3ccc4c(c3)OCO4)cs2)cc1	104	99	-13	85
CCC1CCCCN1C(=O)CSc1ncc(-c2ccc(F)cc2)n1CC (configuration not stated)	101	98	-48	2
CC(=O)N1CCN=C1SCc1ccc(C(F)(F)F)cc1	101	104	0	-2
CCCNC(=O)N(C)Cc1ccccc1	106	114	-2	.
CC(C)C(=O)Nc1c(C(=O)N2CCCCCC2)oc2ccccc12	100	100	-23	-22
Cc1ccc(SCC(C)CNC(=O)Nc2ccccc2)cc1 (configuration not stated)	100	104	-18	-11
CN1C(=S)N(C2CC2)C(=O)/C1=C\c1ccc(OC(F)F)cc1	103	101	-61	9
CCNC(=S)N/N=C1\CCCCC1C (configuration not stated)	103	106	-38	2
NCCc1ccncc1	104	104	-12	-2
CC(=NCCc1cnc[nH]1)c1c(C)[nH]n(-c2ccc(F)cc2)c1=O	103	103	17	9
NCCNC(=S)Nc1ccccc1	100	102	0	0
CC(C)CCNC(=O)c1ccc2c(=O)n(Cc3ccc(Cl)cc3)c(=S)[nH]c2c1	105	107	-5	-9
CC(C)(C)OC(=O)C[n+]1ccc(C(N)=O)cc1	100	101	-19	5
CC1(C)CC(=O)C=C(NNC(=O)C23CC4CC(CC(C4)C2)C3)C1	101	106	-4	16
COc1ccc(C2N=C(N3CCc4ccccc43)SC(N)=C2C#N)cc1 (configuration not stated)	97	98	4	15
CCSc1nnc(SCC(=O)c2ccc3[nH]c(=O)[nH]c3c2)s1	91	77	9	26
COC(=O)C1CCN(C(c2ccc(OC)cc2)c2sc3ncnn3c2O)CC1 (configuration not stated)	105	107	-24	14
O=C(COC(=O)c1cccnc1Cl)NC12CC3CC(CC(C3)C1)C2	104	99	.	-2
S=C(NCCCN1CCOCC1)Nc1ccccc1	101	104	9	-16
N#Cc1ccc(OCC(=O)Nc2ccncc2)cc1	101	102	.	-6
CCCn1c(SCc2nc(-c3ccc(OC)cc3)no2)nnc1-c1ccncc1	100	105	-7	-7
CN(C)c1cccc(C(=O)OCc2ccc(C#N)cc2)c1	101	101	-6	-134
COc1ccc(C2c3cc(OC)c(OC)cc3CCN2C(C)=O)cc1OC (configuration not stated)	104	98	-32	-7
O=C(CCCCCCCCCCCCC1CCCC1)Nc1ccc(S(=O)(=O)c2ccc(NC(=O)CCCCCCCCCCCCC3CCCC3)cc2)cc1	101	100	-9	-11
C=CCn1c2ccccc2c2nnc(SCC(=O)NC3=NN=C(c4ccccc4)CS3)nc21	102	101	-31	-2
CC(C)(C)CC(=O)Nc1cccc2c1CCCC2	102	104	-23	-8
CC(Sc1nc2ccccc2n1C)C(=O)Nc1ncc(Cl)cc1Cl (configuration not stated)	102	106	-23	-11
COC(=O)NCc1ccc(CNC(=O)OC)cc1	103	102	-17	-1
Cc1cccc(OCC(=O)N(Cc2ccco2)Cc2ccco2)c1	101	102	-12	1
Cc1cccc(C)c1NC(=O)COC(=O)Cn1nnc(-c2ccccc2)n1	101	98	-1	4
COc1ccc(CCn2c(NCc3ccco3)nc3c2c(=O)[nH]c(=O)n3C)cc1	103	109	6	-2
O=C(COC(=O)C1(c2ccccc2F)CCCC1)N1CCCCC1	102	97	.	0
C=CCn1c(SCC#N)nc2c(c1=O)C1(CCCCC1)Cc1ccccc1-2	.	.	-17	1
CCC(Sc1nc2c(c(=O)[nH]1)CCC2)C(=O)Nc1cccc(OC)c1 (configuration not stated)	102	105	5	96*
CC1=C(C(=O)N2CCOCC2)C(c2ccc3c(c2)OCCO3)NC(=S)N1 (configuration not stated)	105	113	-27	7
O=C1/C(=C\c2ccc(OC(F)F)cc2OC(F)F)Oc2cc(O)ccc21	49	250	-108	3
O=C(CCn1c(=O)sc2ccccc21)NCCCc1ccccc1	103	107	-18	-4
O=C(NC1CC(=O)N(c2ccccc2)C1)N1CCN(C(=O)c2ccco2)CC1 (configuration not stated)	96	105	-11	0
CCNc1ncnc2c1cnn2-c1ccc(C)cc1	101	101	-18	46
O=c1oc(-c2ccc(Cl)cc2)nnc1-c1ccccc1	105	113	-12	8
CCNC(=O)c1ccccc1NC(=O)c1cccc(S(=O)(=O)N2CCCC2)c1	102	106	-6	-3

Some of these compounds in order of formula weight, high to low:
SMILES	Polio RdRp inh	Polio RdRp inh intensity	MenB inh	Mtb MbtI inh
Cc1nc2ccccc2c(C)c1CC(=O)N1CCN(CCOc2ccccc2)CC1	94	105	2	16
Cc1oc2c(c1C(=O)Nc1ccc(I)cc1)CCCC2	103	104	-25	-14
CCOc1ccc(NS(=O)(=O)c2ccc3c(c2)N(C(C)=O)CCO3)cc1	104	101	-7	-20
COc1ccc(CNC(=O)c2cccnc2SC)cc1OC	104	104	5	-1
CCN(C(C)=O)c1nc2c3ccccc3n(C(C)=O)c2s1	102	100	-6	-16
Cn1c(NC(=O)/C=C/c2ccccc2)cc(=O)n(C)c1=O	99	103	-13	-1
N#Cc1ccc(OCC(=O)Nc2ccncc2)cc1	101	102	.	-6

High-throughput results: PubChem BioAssay, ICCB-Longwood Screening Facility, Harvard Medical School
